Rango-impB inh: prevents formation of the Rango-importin beta complex; Rango CFP/YFP FRET sensor + importin beta, 45 min; Potency, µM (doses to about 92.2 µM), for inactives: at the top dose inhibition of complex formation; Q14974; 340,000 tested, 0.031% active; active = rising FRET ratio curve, often small or poorly fitted; inconclusive = mostly compound fluorescence or quenching in the first reads; inactive = flat curves in all reads;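 further: potency means the concentration at half of the fitted maximal effect; 0% = DMSO wells and 100% = buffer wells lacking importin beta; nearly all actives have a fitted effect of over 15% in size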
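FRET biosensor (snurportin 1 IBB flanked by EYFP and cerulean), 50 nM, with compound 5 min, then 0.125 microM importin beta in PBS, 1 mM DTT, 0.02% Tween-20, 0.1% BSA. CFP/YFP ratio read after 45 min at room temperature; pre-read flags interference.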
Rango dissoc inh: inhibition of RanGTP-driven Rango-importin beta dissociation; O95149+P62826; Biochemical FRET Rango-importin beta, RanGTP-induced dissociation; Potency, µM (titrated, usually from 46.1 µM), for inactives: top-dose activity change, negative = inhibition; 340,000 tested, 0.071% active; AID 540253; active means falling FRET ratio curve, often poorly fitted, with flat reads before Ran was added; inconclusive means other falling curves, or compound fluorescence or quenching; inactive means flat or rising ratio curve;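 further: potency means the concentration at half of the fitted maximal effect; % of control where 0% means no effect; nearly all actives have a fitted effect of over 45% in size; -100% = wells without RanGTP and RCC1; the record marks most hits as doubtful in a second field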
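Rango (0.1 uM)–importin beta (0.25 uM) complex; RanGTP-RCC1 trigger; 45 min RT; CFP/YFP FRET read.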
GLA inh pH 4.5: blocks human alpha-galactosidase A at pH 4.5; purified enzyme, 4-MU-alpha-Gal fluorescence, pH 4.5; activity change, negative = inhibition, % at 105 µM; 230,000 tested, under 10 active; AID 1467; inconclusive = small, poorly fitted or top-dose-only inhibition, or a rising curve; inactive = flat fitted curve, though single readings scatter; no compound was filed as active;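 further: 0% = full activity with enzyme and -100% = basal without enzyme; dose as in the result columns while the protocol names 77 µM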
Target sequence (P06280 whole entry, looked up): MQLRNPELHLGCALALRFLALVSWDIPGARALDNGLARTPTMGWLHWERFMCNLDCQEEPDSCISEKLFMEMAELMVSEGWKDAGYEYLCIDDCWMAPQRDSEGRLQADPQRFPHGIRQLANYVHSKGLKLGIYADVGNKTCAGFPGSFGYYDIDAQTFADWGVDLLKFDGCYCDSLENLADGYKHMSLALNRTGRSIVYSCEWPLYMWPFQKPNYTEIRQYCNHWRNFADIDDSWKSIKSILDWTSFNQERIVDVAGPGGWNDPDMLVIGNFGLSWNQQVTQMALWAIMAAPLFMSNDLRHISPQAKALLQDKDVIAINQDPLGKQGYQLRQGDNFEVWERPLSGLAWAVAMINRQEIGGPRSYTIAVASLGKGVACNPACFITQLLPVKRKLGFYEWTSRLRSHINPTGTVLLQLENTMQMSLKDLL
miR-21 FLuc: raises the signal of a miR-21 reporter; HeLa miR-21 FLuc reporter, luciferase, 48 h; Potency, µM (highest dose often 38.3 µM), without a hit: top-dose reporter change, positive = more light; 340,000 tested, under 10 active; AID 2288; active = well fitted rising curve with a large enough effect; inconclusive = small, poorly fitted or top-dose-only effect; inactive = no such curve, though single readings can be large or run the other way;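 further: % of control where 0% means no effect; miR-21 action dims this reporter so a rising signal means less miR-21 action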
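Luminescence from a firefly luciferase reporter carrying a miR-21 binding site downstream, stably expressed under a CMV promoter in HeLa cells that make miR-21 endogenously, reports miRNA modulation after 48 h compound exposure up to approximately 40uM final.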
* marks the source's active call; other numbers are inactive results; ? = inconclusive; nt = not tested or not shown; & = joins results of further samples. The list is partial; count on the stated rates, not on these rows.

Start of the listing, in advance, 3 compounds:
SMILES	Rango-impB inh	Rango dissoc inh	GLA inh pH 4.5	miR-21 FLuc
COc1ccccc1C/C(N)=N/OC(=O)c1cccc([N+](=O)[O-])c1	0.4%	-11%	2	-20%
COc1ccc(Cc2nnc(N/N=C/c3ccccc3O)[nH]c2=O)cc1OC	-3.3%	-2%	-10	?
O=C(O)CN1C(=O)c2cccc3c(Br)ccc1c23	?	?	nt	-5%

All compounds of this part (from the top)
SMILES	Rango-impB inh	Rango dissoc inh	GLA inh pH 4.5	miR-21 FLuc
COc1ccccc1C/C(N)=N/OC(=O)c1cccc([N+](=O)[O-])c1	0.4%	-11%	2	-20%
COc1ccc(Cc2nnc(N/N=C/c3ccccc3O)[nH]c2=O)cc1OC	-3.3%	-2%	-10	?
O=C(O)CN1C(=O)c2cccc3c(Br)ccc1c23	?	?	nt	-5%
CC1CCCC(C)N1C(=O)COC(=O)Cc1ccc(F)cc1 (centres undefined)	4.8%	-1%	nt	10%
COc1ccc(S(=O)(=O)NCC2CCCN(CC(C)(C)C)C2)cc1 (centres undefined)	1.7%	?	-5	-6%
CC(NC(=O)OC(C)(C)C)C(=O)N1CCCC1C(=O)NC(Cc1ccccc1)C(N)=O (centres undefined)	-2.7%	-10%	-1	-6%
CCN(c1ccc(OC)cc1)S(=O)(=O)c1ccc(-c2ccc(=O)[nH]n2)o1	-1.1%	-9%	nt	-2%
O=C(Nc1ccc(Cl)cc1Cl)C1=Cc2ccccc2OC1	-2.7%	9%	6	-38%
CN(c1ccc(C(=O)N2CCCCCC2)cc1)S(=O)(=O)c1ccc(Cl)cc1	-1.3%	0%	nt	17%
CCN(CC(=O)NCc1cccs1)C(=O)c1ccc(NS(=O)(=O)c2ccc(F)cc2)cc1	?	-3%	nt	nt
COc1ccc(S(=O)(=O)N2CCCC2)cc1OC	-4.2%	-15%	nt	-10%
Cc1cccc(NC(=O)CCNS(=O)(=O)c2cc(Br)cnc2N)c1C	0.5%	-8%	nt	3%
C/C(=N\NC(=O)c1ccc(Cn2cc(Br)cn2)o1)c1cccc(NC(=O)C(C)C)c1	0.0%	17%	8	-16%
CNC(=S)N(C1=NCC(c2ccc([N+](=O)[O-])cc2)S1)c1ccccc1 (centres undefined)	-1.7%	-6%	nt	-35%
O=C(Nc1ccccc1F)c1cc(Cl)sc1Cl	-0.5%	7%	nt	-33%
Cc1cc(NC(=O)c2ccc(S(=O)(=O)N(C)C)cc2)n(-c2ccccn2)n1	-1.1%	2%	0	0%
CCN(c1ccccc1)S(=O)(=O)c1ccc(N2CCN(c3ccccc3O)CC2)nc1	3.9%	0%	nt	nt
O=C(Nc1ccc2[nH]c(=O)[nH]c2c1)C(F)(F)F	1.5%	-5%	-3	2%
COC(=O)Nc1ccc2c(c1)ncn2C1CCCCC1	-0.2%	-16%	-3	-62%
C/C(=N\NC=O)c1ccncc1	2.3%	-10%	3	0%
Cc1cccc(OCCNC(=O)c2ccc(Oc3ccc(C(F)(F)F)cc3[N+](=O)[O-])cc2)c1	-2.0%	3%	-9	5%
Cc1cccc(NC(=O)CSc2nnc(CCC(=O)Nc3ccc(C)c(Cl)c3)n2C)c1	-0.6%	-5%	-5	-2%
CCOC(=O)C(C(=O)OCC)C(CC(=O)C1CC1)c1ccccc1 (centres undefined)	5.2%	-25%	0	2%
CC(=O)[C@]1(O)Cc2c(O)c3c(c(O)c2[C@@H](O[C@H]2C[C@H](N)[C@H](O)[C@H](C)O2)C1)C(=O)c1ccccc1C3=O	?	?	-2	nt
CCOc1cc(NC(=O)c2ccco2)c(OCC)cc1NC(=O)CCC(=O)NCc1cccnc1	4.8%	5%	3	-2%
Cn1nc(-c2ccc(Cl)cc2)c2cc(C(=O)N3CCN(C(=O)c4ccco4)CC3)sc21	?	5%	-10	-1%
C=CCOc1ccc(/C=C/C(=O)OCC(=O)N2CCN(S(=O)(=O)c3ccc(C)cc3C)CC2)cc1	5.7%	0%	nt	nt
C/C(=N\NC(=O)c1cccc(S(=O)(=O)Nc2cccc(Cl)c2)c1)c1cccs1	0.1%	10%	-2	-8%
COc1ccc(-c2cc(C(=O)NNC(=O)c3csc(N4CCOCC4)n3)c3ccccc3n2)cc1OC	-2.0%	14%	nt	nt
C=CCSc1cc(C)nc2c(-c3ccccc3)c(C)nn12	-2.1%	16%	-4	-19%

Some of these compounds in order of their number in Rango-impB inh, descending:
Compound | Rango-impB inh | Rango dissoc inh | GLA inh pH 4.5 | miR-21 FLuc
CCN(c1ccc(OC)cc1)S(=O)(=O)c1ccc(-c2ccc(=O)[nH]n2)o1 | -1.1% | -9% | nt | -2%
CN(c1ccc(C(=O)N2CCCCCC2)cc1)S(=O)(=O)c1ccc(Cl)cc1 | -1.3% | 0% | nt | 17%
COc1ccc(Cc2nnc(N/N=C/c3ccccc3O)[nH]c2=O)cc1OC | -3.3% | -2% | -10 | ?
COc1ccc(S(=O)(=O)N2CCCC2)cc1OC | -4.2% | -15% | nt | -10%

(more compounds)
SMILES	Rango-impB inh	Rango dissoc inh	GLA inh pH 4.5	miR-21 FLuc
CCN1C=C(C(C)=O)C(=O)CC1	-1.0%	-4%	nt	nt
CC(=O)OCC1=C(C(=O)O)N2C(=O)[C@@H](NC(=O)Cc3ccccc3)[C@H]2SC1	-1.9%	2%	nt	nt
O=[N+]([O-])c1ccc(-c2nn(-c3ccccc3)cc2/C=N/n2c(-c3cccs3)n[nH]c2=S)cc1	0.2%	-7%	1	-2%
COC(=O)C1=C(C)N(c2cccc(C(C)=O)c2)C(=O)C1	-1.9%	-6%	3	-8%
CSc1nc(=O)n2cc(C)ccc2n1	-0.4%	1%	6	-14%
CC(C)(C)C1CCC2(CC1)NC(=S)N(c1ccccc1)N2 (centres undefined)	2.5%	27%	7	-27%
O=C(C(=O)c1cc(Br)ccc1O)c1cc(Br)ccc1O	11%	33%	nt	nt
O=C(CCCC(=O)N(CC(=O)NC1CCCC1)Cc1ccc(F)cc1)Nc1ccccn1	-0.1%	-1%	0	-5%
Cc1ccnc2c(N3C(=O)C4C5C=CC(C5)C4(C)C3=O)cccc12 (centres undefined)	-3.7%	-7%	9	-4%
Cc1ccc(C(CC(=O)c2ccc(Cl)cc2)C(=O)O)cc1 (centres undefined)	4.7%	-2%	-6	-1%
Cc1ccnc(SC2CC(=O)N(c3ccc(C(C)C)cc3)C2=O)n1 (centres undefined)	3.7%	19%	nt	0%
O=c1cc(-c2ccccc2Cl)oc2c(NS(=O)(=O)c3cccc4nsnc34)ccc(O)c12	?	1%	4	-4%
Cc1cccc(NC(=O)c2nc[nH]c2C(=O)N[C@@H](C)C(=O)OC(C)(C)C)c1	0.6%	1%	-7	13%
O=C(NCc1ccco1)C(=O)c1cn(CC(=O)N2CCCC2)c2ccccc12	-5.6%	0%	-15	-8%
Cc1cc(=O)n(-c2ccccc2Cl)[nH]1	-0.5%	-20%	0	1%
CC(=O)c1c(N2CCN(c3ccccc3)CC2)nc(=S)n(-c2ccccc2)c1C	?	-18%	-4	-8%
Cc1cc2ncn(CC3CC3(Cl)Cl)c2cc1C (centres undefined)	-1.0%	10%	-11	-15%
COc1ccccc1NC(=O)N1CCN(Cc2ccc3c(c2)OCO3)CC1	0.6%	-2%	-4	7%
CCOc1ccc(NC(=S)NCc2cccnc2)cc1	-1.1%	0%	-7	-3%
COc1ccc(N2CCN(Cc3nc(N)nc(Nc4ccccc4OC)n3)CC2)cc1	0.0%	5%	-7	-4%
N#C/C(=C/c1ccc(N2CCOCC2)c([N+](=O)[O-])c1)C(N)=O	1.2%	1%	3	-1%
Cc1cc(C)cc(OCC(=O)OC/C(O)=C(\C#N)c2nc3ccccc3[nH]2)c1	?	-12%	3	-4%
CC(C)N(Cc1ccccc1)S(=O)(=O)c1ccc(F)cc1	?	-1%	nt	8%
CCOC(=O)N1CCN(c2c(NCc3ccccn3)c(=O)c2=O)CC1	-0.4%	16%	-2	1%
COc1ccccc1-c1c(C)nn2c(N3CCC(C)CC3)cc(C)nc12	5.1%	13%	-13	-3%
Cn1c(=O)c2c(ncn2CC(=O)N2CCCc3ccccc32)n(C)c1=O	3.9%	4%	-2	-2%
CCOc1ccc(S(=O)(=O)N2CCC(C(=O)NCCc3ccc(OC)c(OC)c3)CC2)cc1	0.7%	-11%	nt	-2%
O=C1c2nccnc2C(=O)N1c1ccc(C(F)(F)F)cc1	2.1%	1%	-5	-2%
CCOc1ccc2nc(COC(=O)c3cccc([N+](=O)[O-])c3)c(C(C)=O)[n+]([O-])c2c1	2.4%	6%	-2	-1%
c1ccc(-n2nnnc2SCc2cn3cccnc3n2)cc1	2.4%	-19%	0	-1%
CCOC(=O)c1ccc(NC(=O)CCNc2c(N3CCCC3)c(=O)c2=O)cc1	1.3%	1%	-1	-2%
CCOC(=O)c1cnc2c(c(C)nn2C)c1Oc1cc(Cl)cc(Cl)c1	0.8%	13%	2	-3%
N#C/C(=C\c1ccc(OCc2cccc(C(=O)O)c2)cc1)C(=O)NCc1ccco1	0.3%	-1%	0	-50%
CNc1[nH]c(=O)[nH]c(=O)c1N=Nc1cc(Cl)ccc1Cl	1.8%	1%	nt	nt
COc1ccc(Cl)c2sc(N(Cc3cccnc3)C(C)=O)nc12	0.7%	-3%	nt	1%
COc1ccccc1C1N(c2cc(Cl)ccc2OC)C(=O)C2CCCN21 (centres undefined)	-1.0%	23%	0	-8%
CSCCC(NC(=O)c1ccc(Cl)cc1Cl)C(=O)NNC(=O)c1ccncc1 (centres undefined)	6.5%	11%	nt	nt
COc1ccc(C2CC(=O)N3CN(Cc4ccco4)CSC3=C2C#N)cc1 (centres undefined)	-3.9%	8%	-9	-4%
Cc1ccc([N+](=O)[O-])cc1S(=O)(=O)N1CCCCC1C(=O)O (centres undefined)	-1.1%	-3%	3	-7%
Cc1cccc(CSc2ncccc2C(=O)O)c1	7.0%	3%	-5	-26%&-32%
CCSc1nc(-c2ccccc2)c(C#N)c(=O)[nH]1	?	0%	-1	-3%
COc1ccc2[nH]cc(CCNC(=O)Nc3ccccc3)c2c1	0.8%	-4%	nt	-3%&2%
COc1ccc(S(=O)(=O)NCC(=O)O)cc1C(=O)NC1CCCCC1	-0.4%	-15%	0	13%
COc1ccc2nc3c(cc2c1)c(NC(=O)CC(C)C)nn3CC(C)C	?	?	nt	10%
O=S(=O)(c1cnc(Cl)c(Cl)c1)N1CCN(c2ncccn2)CC1	-1.7%	1%	-11	0%
C=CCSc1nc2c(c(=O)[nH]c(=O)n2C)n1C(C)C	-1.2%	?	-7	-33%
CCOC(=O)Cn1nc(-c2ccc(F)cc2)cc(Cc2ccccc2)c1=O	0.7%	8%	nt	-8%
Cc1nc2cc(NS(=O)(=O)c3c(C)c(C)cc(C)c3C)ccc2s1	3.2%	-6%	0	20%
COC(=O)c1cc(OC)nc(OC)c1	1.4%	-20%	1	-2%
O=C(C[n+]1ccc(-c2nnc3n2CCC3)cc1)c1ccc(Cl)cc1	?	-24%	-6	1%

Next part.
SMILES	Rango-impB inh	Rango dissoc inh	GLA inh pH 4.5	miR-21 FLuc
O=C1CCC(CCC(=O)N2CCCC(C(=O)c3cccc(C(F)(F)F)c3)C2)=NN1 (centres undefined)	-2.2%	-4%	3	0%
CCOC(=O)N/C(N)=N/c1nc2ccccc2s1	-1.6%	-6%	4	-52%
CC(NC(=O)Nc1ccc(Cl)c(Cl)c1)C(c1ccccc1)N1CCOCC1 (centres undefined)	-5.4%	0%	1	25%
CCN1C(=O)/C(=C/N(C)c2ccccc2)OC1=S	?	21%	-8	-36%
Cc1ccc(C(=O)OCC(=O)c2c[nH]c3ccccc23)cc1S(=O)(=O)N1CCOCC1	0.7%	-3%	nt	nt
CC[C@]12c3[nH]c4cc(-c5ccco5)ccc4c3CCN1C(=O)[C@@H](CC(=O)NCc1ccc(OC)c(OC)c1)C[C@@H]2C(=O)N1CCN(C(=O)c2ccco2)CC1	-3.5%	7%	nt	nt
Cn1cnnc1SCCNS(=O)(=O)c1ccccc1	5.2%	0%	11	0%
Cc1cc(C)c2cc(CN(Cc3nnnn3C3CCCCC3)CC3CCCO3)c(=O)[nH]c2c1 (centres undefined)	-1.1%	-3%	-10	-6%
COc1ccc(S(=O)(=O)Nc2ccccc2)cc1OC	2.3%	-12%	8	4%
O=S(=O)(NC1CCSc2ccccc21)c1ccc(Cl)nc1 (centres undefined)	-1.1%	0%	nt	-6%
